BasE inh: inhibitors of Acinetobacter baumannii siderophore enzyme BasE | purified BasE, fluorescence polarization binding displacement | inhibition, % (test concentration not listed) | 84,000 compounds, 0.1% hits | AID 485350;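 active means both replicates above 25% with normal brightness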;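 further: 0% = negative plate control signal and 100% = positive plate control signal; stock transfer was 100 nL into about 30 µL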
KSHV LANA nucl: LANA-nucleosome interaction inhibition; FITC-LANA1-23 / chicken nucleosome fluorescence polarization; active compounds read low; z-score (no concentration beside the values); 51,000 compounds, 0.3% hits; AID 720717;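 active means both repeat wells score below -2 in polarization z-score versus plate sample wells, excluding overly bright wells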;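 further: 100 nL library stock added to about 30 µL; numbers are from one replicate; some results filed as inactive read as strong as hits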
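System – purified chicken nucleosomes with FITC-labelled LANA N-terminal peptide (1-23) · Amount – 240 nM purified chicken nucleosomes (480 nM peptide binding sites), final · Also added – 50 nM FITC-LANA1-23 probe · Medium – TEN-BT buffer, pH 7.5 · Incubation – compound with peptide–nucleosome mix 10–45 min at room temperature · Detection – fluorescence polarization, ex 480 nm, em 535 nm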
Starred values were filed as active, the others as inactive; x = no result given. A portion of the library; count on the stated rates, not on these rows.

The opening three compounds as a preview:
SMILES	BasE inh	KSHV LANA nucl
Cc1cc(-c2ccc(C)c(S(=O)(=O)N3CCN(CCOc4ccc(Cl)cc4)CC3)c2)on1	-0.6	x
CSC1=NC(C)(C)C=C(C)N1	x	-0.79
O=S(=O)(c1ccc(-c2csc(=Nc3ccccc3)n2CCc2ccccc2)cc1)N1CCCC1	-0.1	x

Main list, repeating the preview:
SMILES	BasE inh	KSHV LANA nucl
Cc1cc(-c2ccc(C)c(S(=O)(=O)N3CCN(CCOc4ccc(Cl)cc4)CC3)c2)on1	-0.6	x
CSC1=NC(C)(C)C=C(C)N1	x	-0.79
O=S(=O)(c1ccc(-c2csc(=Nc3ccccc3)n2CCc2ccccc2)cc1)N1CCCC1	-0.1	x
CC1CC(Nc2ccccc2)c2ccccc2N1S(=O)(=O)c1ccc(Br)cc1 (configuration not stated)	-1.2	x
COc1ccc(-c2n[nH]c(=S)n2C2CCCCC2)cc1OC	2.9	-0.96
CSc1nc(C)nc(Sc2ccccc2)c1C#N	-2.6	x
O=C(CN1CCOCC1)NN=C1CCCCC1	0.1	0.56
CCc1ccc(OCC(=O)N2CCCCC2)cc1	-3.7	3.2
O=C(OCCN1C(=O)c2ccccc2C1=O)c1ccc(S(=O)(=O)NCc2ccco2)cc1	4.7	x
CN(C)CCN(C)Cc1cccc(C(F)(F)F)c1	2.2	-1.1
O=C1Cc2cccc3cccc1c23	4.4	0.33
CCN(CC(=O)NC1CCS(=O)(=O)C1)C(=O)c1cc(C)on1 (configuration not stated)	2.5	x
CC(Sc1ccccc1F)C(=O)Nc1ccc(S(N)(=O)=O)cc1 (configuration not stated)	-4.0	x
Cc1cc(-n2c(C)cc(C(=O)CSc3ccc4c(c3)OCCO4)c2C)no1	1.0	x
COc1ccc(C)cc1S(=O)(=O)NC(C)(C)C	0.6	-0.71
O=C(NC1CCCC1)c1cc2sccc2n1Cc1ccccc1	1.1	-2
NC(=O)NCc1ccc2[nH]c3c(c2c1)CCCC3	3.4	-0.82
O=C(CN1N=C(c2ccccc2)CCC1=O)NC1CCCC1	0.8	-1.3
FC(F)(F)c1cc(Br)ccc1/C=C/c1noc(CN2CCSCC2)n1	x	-0.099
COc1ccc(CN2CCC(=O)NC2=O)cc1C	-0.8	2.1
Cc1ccc(C)c(NCc2cc(=O)n3ccsc3n2)c1	-0.2	x
Cc1ccccc1Cc1c(C)[nH]c2nc3ccccc3n2c1=O	x	0.17
COc1cc(CNCCN2CCOCC2)cc(Cl)c1OCC(N)=O	0.3	-0.45
O=C(CCN1C(=O)/C(=C\c2ccco2)SC1=S)Nc1ccccc1	2.0	0.14
O=S(=O)(NCc1ccccc1)c1ccc(N2CCCCS2(=O)=O)cc1	1.4	-0.34
CC1(C)CC(=O)/C(=N/Nc2ccccc2)CO1	1.1	-0.51
NNc1nc(C(F)(F)F)nc2c1cnn2Cc1ccccc1	-0.5	x
O=C(O)C1=C(Nc2ccccc2)OCC1=O	1.5	x
CC1OCC/C1=N/OC(=O)Nc1c(Cl)cccc1Cl (configuration not stated)	-1.6	-0.14
Fc1ccc(C2=NN(C(=S)NCc3ccccc3)CCC2)cc1	3.3	x
CCOC(=O)COc1ccc2c(=O)c(-c3cscn3)coc2c1	-0.7	x
CC(=O)Nc1c(C(=O)c2ccc(F)cc2)oc2ccccc12	-3.6	2.7
CC(OC(=O)Cn1cc(C(F)(F)F)ccc1=O)C(=O)Nc1ccc2c(c1)OCO2 (configuration not stated)	-0.5	x
COc1ccc(N(C)C(=O)c2ccc3c(c2)nnn3C)cc1	-0.5	-0.9
CCOC(=O)C(O)(C1C(=O)CC(C)(C)CC1=O)C(F)(F)F (configuration not stated)	-2.4	-0.76
O=C(NCCCO)c1cc2ccccc2oc1=O	5.7	-1
O=C(CCCc1nc2ccccc2s1)NC1CCOC1=O (configuration not stated)	-0.7	x
Cc1c(C(=O)N2CCOCC2)c(S(=O)(=O)NCCc2ccc(Cl)cc2)c(C)n1C	0.4	-0.29
CN1C(=C(C#N)C(=O)COc2ccc(F)cc2Cl)N(C)c2ccccc21	2.7	x
Cc1csc(N(C(=O)Cn2nnc3ccccc32)c2ccccc2)n1	0.7	x
O=C(/C=C/c1cccs1)NC(=S)NCc1ccccc1	2.9	x
COc1ccc(CC(=O)NCC(C)(C)N2CCOCC2)cc1	-0.1	x
Cc1cc(C)c2nc(SCC(=O)c3ccco3)cc(C)c2c1	-1.2	x
CC(C)C(NC(=O)CSc1nnc(-c2ccc(F)cc2)o1)c1nc2ccccc2[nH]1 (configuration not stated)	0.4	x
CCCc1cc(C(=O)N2CCCN(C)CC2)cs1	2.2	-1.3
Nn1c(COc2cccc(Br)c2)nnc1SCC(=O)NCc1ccccc1	0.2	x
Cc1cc(NC(=O)CSc2nc3ccc(N4CCOCC4)cc3c(=O)n2CCc2ccccc2)n[nH]1	-1.9	-0.009
CCCCCn1c(N2CCOCC2)nc2c1c(=O)n(CC(N)=O)c(=O)n2C	-2.3	-0.2
CSc1nc2ccccc2c(=O)n1Cc1ccc(F)cc1	-0.8	x
O=C(NCc1ccc2c(c1)OCO2)C(=S)N1CCCCC1	0.1	-0.34
O=C(O)CCC(=O)Nc1cccc(-c2nc3ccccc3[nH]2)c1	2.4	x
CCOC(=O)N1CCN(S(=O)(=O)c2cc(Cl)c(C)cc2OCC)CC1	-1.3	-0.92
O=C(NC(=S)NCc1ccco1)c1ccc(-c2ccccc2)cc1	1.8	-0.13
Cc1ccc(S(=O)(=O)c2nc(-c3ccccc3)oc2NCCN2CCOCC2)cc1	0.8	-0.085
CC1=NN(c2ccc(C)c(C)c2)C(=O)/C1=C/c1ccc(N2CCOCC2)cc1	3.2	-0.61
COc1ccc(S(=O)(=O)Nc2ccc(C(=O)Nc3nccs3)cc2)cc1	-1.9	0.64
Cc1cc(Cl)ccc1NNC(=O)c1snnc1C	-2.9	2.5
CCOC(=O)NN1C(=O)c2ccccc2NC12CCCCC2	3.3	0.0095
Cc1ccc(OCCN2CCN(c3cc(C)c(C#N)c4nc5ccccc5n34)CC2)cc1	1.3	x
CC1Cc2ccccc2N1C(=O)c1nc2ccccc2s1 (configuration not stated)	2.4	-0.15
(list continues)
SMILES	BasE inh	KSHV LANA nucl
CCOC(=O)c1cnc(Nc2nc3ccccc3s2)nc1C	2.1	0.72
CC1=C(C#N)C(=O)N(CC(C)O)C(=O)/C1=C/c1ccc(-c2ccc(C(=O)OC(C)C)cc2)o1 (configuration not stated)	-1.5	-0.2
COc1cc(Br)c(CC(=O)OCc2nc(N)nc(Nc3ccc(C)cc3)n2)cc1OC	1.1	x
c1ccc2sc(Nc3nc4cc5c(cc4s3)OCO5)nc2c1	0.8	-0.41
Cc1noc(C)c1S(=O)(=O)Nc1ccc(N2CCN(C(=O)OC(C)(C)C)CC2)nc1	1.4	-1.5
CCO/C(C)=C(\C#N)C(N)=O	0.6	x
O=C(O)c1cc(C2CCCCC2)no1	2.0	-0.74
Cc1ccc(C)c(-n2ccn(CC#N)c(=O)c2=O)c1	1.2	-1.7
COc1ccc(N2C(=O)Nc3ccccc3C2(O)C(=O)NCCN2CCN(c3ccccc3)CC2)c(OC)c1 (configuration not stated)	1.8	0.24
O=C(COc1ccccc1)Nc1cccc(-c2ccc3nncn3n2)c1	0.6	0.61
Clc1cccc(-c2noc3ncnc(NCCC4=CCCCC4)c23)c1	-1.8	1.3
O=C(OCc1nnc(-c2ccccc2)o1)c1ccccc1	1.2	x
CC(C)Cn1c(N)c(C(=S)NC(=O)c2ccco2)c(=O)n(C)c1=O	4.1	x
O=C(ON=C1CCCC1)c1ccc(Br)cc1	-0.3	-0.62
O[C@H]1[C@H]2c3cc4c(cc3CN3CCC(=C[C@@H]1O)[C@H]23)OCO4	3.9	1.2
FC(F)(F)c1c[nH]c(=S)c(C(F)(F)F)c1	1.2	x
CSc1ccccc1NC(=O)CN(C)C1CCN(C)CC1	0.7	x
CSC(=NCCc1ccc(Cl)cc1)NS(=O)(=O)c1ccccc1	1.0	x
CCOC(=O)N1CCCN(CC(=O)NC(C)(C)C)CC1	2.0	x
OCc1noc(-c2ccc(Cl)c(Cl)c2)n1	-1.2	x
Cc1[nH]ncc1CNC(=O)c1ccc(N2CCOc3ccccc32)s1	-0.1	0.4
O=C(CN1C(=O)CSC1=O)N1CCCCC1	-2.0	-0.27
CCOc1ccc(-c2cc(N)c(C(=O)OC)s2)cc1	1.7	0.49
O=C(CCCCn1c(=O)c2ccccc2n(CC(=O)N2CCN(c3ccccc3)CC2)c1=O)NCc1ccco1	1.9	0.32

Five entries already listed, ordered by molar mass, largest number first.
SMILES	BasE inh	KSHV LANA nucl
O=C(NC(=S)NCc1ccco1)c1ccc(-c2ccccc2)cc1	1.8	-0.13
Cc1cc(C)c2nc(SCC(=O)c3ccco3)cc(C)c2c1	-1.2	x
CCOC(=O)NN1C(=O)c2ccccc2NC12CCCCC2	3.3	0.0095
Cc1ccc(C)c(-n2ccn(CC#N)c(=O)c2=O)c1	1.2	-1.7
O=C1Cc2cccc3cccc1c23	4.4	0.33

(listing goes on)
SMILES	BasE inh	KSHV LANA nucl
O=C(CCN1C(=O)NC2(CCCC2)C1=O)NCc1cccs1	0.0	x
COc1ccc(-c2nnc(Nc3nc4c(F)cccc4s3)o2)c(OC)c1	11	0.23
CC(=O)Nc1cc2nc3[nH]c(=S)[nH]c(=O)c3nc2cc1C	30	-1.2
COc1ccc(N=Cc2ccncc2)cc1	-0.6	-0.023
CC(C)(C)c1ccc(S(=O)(=O)N(CCCN2CCOCC2)Cc2cccs2)cc1	-10	-0.1
CNN1C(=O)c2cccc3cccc(c23)C1=O	-1.4	x
CNC(=S)N/N=C/c1ccc(N(C)C)cc1	3.5	-0.29
COc1ccc(CN(C)C(=O)CN(c2ccc3c(c2)OCO3)S(C)(=O)=O)cc1	2.3	0.15
O=S(=O)(c1ccccc1)N1CCSC1c1ccccc1 (configuration not stated)	2.4	x
O=C(CSc1ncn(-c2ccccc2)n1)NCCc1ccccc1	4.8	0.26
CCN1C(=O)N/C(=C/c2ccc(-c3cc(C(=O)O)ccc3Cl)o2)C1=O	1.9	0.79
CS(=O)(=O)N(CC(=O)O)Cc1ccc(Cl)c(Cl)c1	3.9	-0.81
CC1=NN(c2ccccc2)C(=O)/C1=C\c1ccccc1CC(=O)O	1.2	x
CCc1ccc(-c2nc(SCC(N)=O)n[nH]2)cc1	-0.2	x
CC(C)(O)C(/C=C/c1ccccc1)=N/NC(N)=O	-1.4	1.4
CC(C)N(C(=O)Cn1cc(S(=O)(=O)CC(=O)N(C)c2ccccc2)c2ccccc21)C(C)C	0.7	-0.4
COc1ccc(C(=O)CC2=NC(C)(C)CO2)cc1	-2.3	0.52
Clc1ccc(Cl)c(-c2nn3c(Cn4nnc5ccccc54)nnc3s2)c1	-1.5	-0.11
NC(=O)CSc1nnc2ccc3ccccc3n12	-0.7	0.16
Cc1ccc(-c2nnc(SC(C)C)n2-c2ccccc2)cc1	0.1	0.11
COC(=O)c1ccc(-c2ccc(/C=N/NC(=O)CC3(C)OCCCO3)o2)cc1	0.9	0.011
Cc1sc2ncn(C(C)C(=O)OC3CCCCC3)c(=O)c2c1C (configuration not stated)	0.6	-1
CC(Cc1ccccc1)N/C=C1/CC(=O)NC1=O (configuration not stated)	-2.2	x
O=C(COC(=O)c1ccc2c(c1)OCO2)c1ccccc1	0.2	x

Reformatted: three of the compounds above.
Results follow in this order: BasE inh, KSHV LANA nucl
- Cc1ccc(-c2nnc(SC(C)C)n2-c2ccccc2)cc1
    0.1, 0.11
- COC(=O)c1ccc(-c2ccc(/C=N/NC(=O)CC3(C)OCCCO3)o2)cc1
    0.9, 0.011
- Cc1sc2ncn(C(C)C(=O)OC3CCCCC3)c(=O)c2c1C (configuration not stated)
    0.6, -1

Other records follow:
SMILES	BasE inh	KSHV LANA nucl
O=C(OCc1nc2ccccc2[nH]1)C12CC3CC(CC(C3)C1)C2	2.6	x
CCCC1(CCC)NC(=O)NC1=O	2.4	x
NC(=O)CS(=O)(=O)c1cn(CC(=O)N2CCOCC2)c2ccccc12	1.2	-1.4
Cc1ccc(S(=O)(=O)CCC(=O)OCc2c(C)noc2C)cc1	-0.2	x
CCSc1nc2c(c(=O)n1-c1cc(C)cc(C)c1)SCC2	-0.5	0.32
CCOC(=O)c1ccc(Oc2nc(NC(C)(C)C)nc(N(C)C)n2)cc1	-0.4	x
CCNC(=O)c1ccc(OC)c(OC)c1	-0.4	-0.42
O=C1NC(c2cccs2)Nc2ccccc21 (configuration not stated)	-2.6	-0.6
C=CCN(Cc1nc(-c2ccc(Cl)cc2)no1)C(C)=O	-2.2	1.8
COc1ccc(C(=O)Nc2cccc(S(C)(=O)=O)c2)cc1	0.3	-1.6
CC(=O)Nc1sc2c(c1C(=O)O)CCC2	1.2	x
CC(C)NC(=O)c1cc2n(n1)C(C(F)(F)F)CC(c1cccs1)N2 (configuration not stated)	1.9	x
Cc1cc(N(C(=O)c2ccc3c(=O)n4c(nc3c2)CCCCC4)C(=O)c2ccc3nc4n(c(=O)c3c2)CCCCC4)no1	1.8	x
COc1ccccc1C(=O)Nc1ccccc1N1CCN(C(C)=O)CC1	-4.4	0.31
C/C(=N\N)c1c(-c2ccccc2)c2cc(C)ccc2[nH]c1=O	0.1	x
CC1Sc2ccc(C(=O)Oc3ccc4c(c3)OCO4)cc2NC1=O (configuration not stated)	-3.6	x
C(=Nc1ccccc1)c1ccccc1	0.2	x
O=C1OC(c2ccc(Br)o2)=N/C1=C/c1ccco1	3.1	-0.55
CC1=C/C(=N\Nc2nncc3ccccc23)CC1	0.6	x
O=C(CSc1ccccc1)CSc1ccccc1	x	0.99
CC/C(Cc1ccccc1)=N\NC(=O)c1cccnc1	0.8	x
CCOC(=O)c1ccc(NS(=O)C23CC4CC(CC(C4)C2)C3)cc1 (configuration not stated)	-0.9	x
O=C(CSc1nnc(CNC(=O)c2ccccc2)o1)c1ccccc1	-2.8	-0.36

From PubChem
